# BJeLR lethal: MLPCN primary cell-based screen for lethality selective to Ras in HRASV12 cells. BJeLR (HRASV12) viability, CellTiter-Glo ATP luminescence, 48 h; reference of the scale not given here. actives 0.17% (n = 300,000). AID 1554, 2009. inhibition, % (concentration not given with the values);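 active means replicate mean above 50%; inconclusive means above 50% but judged a plate artefact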;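 further: 50 nL library stock added to about 25 µL; numbers are from one replicate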
# Mtb hypoxia rep: PubChem AID 1159583. M. tuberculosis hypoxia-regulated fluorescent reporter, fluorescence. actives 0.1% (n = 300,000). fluorescence inhibition, % (test concentration not listed);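 active means 35 to 45% if threefold the growth effect, above 45% if 1.5-fold the growth effect; inactive means the rest, general growth blockers included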;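 further: wells of about 50 µL received 100 nL stock; 0% = vehicle wells and 100% = reference inhibitor wells; whole bacteria with a GFP reporter of the hypoxia response; strong numbers were not always called active; many hits fall short of the cut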
# Autofluor counter: compound fluorescence in toxin protease inhibitor counterscreen; actives 3.1% (n = 360,000); fluorescence intensity (test concentration not listed); compound autofluorescence counterscreen, microsphere flow cytometry; active compounds read high;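 active means at least 3 SD above the mean of all compounds, about 16000 in these data; inconclusive means too few beads counted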;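 further: 100 nL of 1 mM stock went into each well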
# Sa RN4220 lethal: growth inhibition of S. aureus RN4220, primary screen, OD600 | actives 0.33% (n = 330,000) | inhibition, % (no concentration beside the values) | 16 h | AID 1259311, 2017;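 active means z-score of -3 or lower and OD600 up to 0.18 on both plates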;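 further: plate controls were untreated cells for no effect and reference antibiotic for full effect; stock transfer was 100 nL into about 80 µL; one replicate is shown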
# PrP 5UTR inh: inhibition of PrP 5' UTR reporter expression. inhibition, % (test concentration not listed). cell-based PrP 5' UTR mRNA reporter, plate reader. AID 488862, 2010. actives 0.35% (n = 340,000);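 active means every replicate at 50% or more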;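 further: 0 = median of the neutral control wells; tested in H4 reporter cells; numbers are from one replicate; inactives centre near -14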
# ugtP null kill: growth inhibition of ugtP-null S. aureus, primary screen, RN4220 ugtP deletion, OD600. 16 h; some inactives read as strong as hits. growth inhibition, % (no concentration beside the values). actives 0.54% (n = 330,000). AID 1259309, 2017;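 active means z-score under -3 and OD600 up to 0.15 on both plates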;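 further: plate controls were untreated wells for no effect and antibiotic for full effect; wells of about 80 µL received 100 nL stock; the first replicate is given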
# Mtb hypoxia rep growth: further read-out of Mtb hypoxia rep, marked with its call; growth inhibition, %; measured here: M. tuberculosis growth (absorbance);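 0% = vehicle and 100% = reference antibiotic; read after six days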
# * = called active by the depositor; ? = inconclusive; / = not tested or not shown.
no.	structure	BJeLR lethal	ugtP null kill	Mtb hypoxia rep	Autofluor counter	PrP 5UTR inh	Sa RN4220 lethal	Mtb hypoxia rep growth
1	CC(=O)CS(=O)(=O)c1ccc(Oc2ccc(S(=O)(=O)CC(C)=O)cc2)cc1	-5	-3	/	4973	-28	1.7	/
2	Cc1c(N=C2SC(CC(=O)Nc3ccccc3)C(=O)N2CCN2CCOCC2)c(=O)n(-c2ccccc2)n1C (stereo unspecified)	3	7	-1	4577	-9	2.7	4
3	Cn1nc(CC(=O)NC2CCCCCC2)c2ccccc2c1=O	20	8	8	4238	-22	4.5	8
4	CC1CCC(NC(=O)C2CCN(c3cnccn3)CC2)CC1 (stereo unspecified)	11	1	12	5446	-32	8.2	10
5	O=C(COC(=O)/C=C/c1cccc(Cl)c1Cl)Nc1ccc2[nH]c(=O)[nH]c2c1	/	-7	0	8760	11	1.1	7
6	Cc1ccccc1NC(=O)Cc1nc(COC(=O)c2ccc(NC(N)=O)cc2)cs1	/	3	14	3674	0	0.5	13
7	O=C(CC1C(=O)NCCN1Cc1ccc(F)cc1)NCCOc1cccnc1 (stereo unspecified)	-5	10	3	2501	-23	1.9	3
8	CSc1ccc(C=Nn2c(C)nc3ccccc3c2=O)cc1	/	1	12	/	/	2.9	2
9	COCCn1c(SCC(=O)NC2CC2)nnc1-c1ccco1	-5	3	0	5320	-14	-1.9	4
10	Cc1nn(C)c(C)c1S(=O)(=O)N1CCc2ccccc21	9	1	/	2306	-2	5.7	/
11	Cc1ccc(C(=O)COC(=O)CCC(=O)NC2CCCCC2)cc1C	32	12	17	/	0	-3.8	3
12	COc1ccc(C2NC(=O)c3ccccc3O2)c(OC)c1OC (stereo unspecified)	1	0	3	5912	-15	1.5	14
13	CCOc1cc(C2c3c(oc4ccccc4c3=O)C(=O)N2c2nccs2)ccc1O (stereo unspecified)	-8	/	/	4545	-29	/	/
14	CSc1ccccc1NC(=O)CN(C)CC(=O)NCc1ccccc1	4	-59	14	4579	-20	23	7
15	COc1ccc(CNC(=O)C/C(C)=N/NC(=O)COc2ccc(Br)cc2)cc1	0	/	/	2668	-28	/	/
16	COc1ccc(NC(=O)C2CCN(S(=O)(=O)c3c(C)noc3C)CC2)cc1OC	-10	7	10	4534	-27	-1.1	-1
17	CCOC(=O)C1CCCCN1Cc1cccc(Oc2ccccc2)c1 (stereo unspecified)	5	41	-3	?	6	1.9	-6
18	C/C(C=NNC(=O)c1cccs1)=C/c1ccccc1	/	-5	2	/	/	1.0	3
19	O=[N+]([O-])c1cnccc1NC1CCCCC1	5	2	4	2983	-11	1.1	-1
20	Cc1cc(C)n(-c2nc3ccccc3[nH]c2=O)n1	0	6	/	5868	-24	2.3	/
21	COc1ccc(NC(=O)c2cc(C)cc(C)c2)cc1[N+](=O)[O-]	-3	-3	-5	3317	-7	-0.9	5
22	COc1ccc(Cl)cc1/C=C/c1ccc2cccc(O)c2n1	6	47	-5	3421	0	41	7
23	Cn1c(=O)c2c([nH]c(=S)n2Cc2ccc(Cl)cc2)n(C)c1=O	-6	5	-2	3270	-38	2.3	12
24	CO/N=C/NC(=O)c1c(OC)ccnc1Oc1ccc(Cl)cc1	4	4	0	8156	-15	3.3	4
25	CCN(CC(=O)N1CCOCC1)S(=O)(=O)c1ccc2ccccc2c1	5	3	-6	4093	-32	2.1	1
26	CC(C)N1CCN(Cc2cn[nH]c2C2CCCCC2)CC1CCO (stereo unspecified)	9	10	5	5341	-22	2.8	11
27	CCOC(=O)C1(S(=O)(=O)c2ccccc2)CCN(Cc2ccc(Cl)cc2)CC1	-6	-5	-1	10699	-20	8.5	6
28	CCCc1nc2oc3c(NCCN(C)C)ncnc3c2c2c1CCCC2	6	15	18	4261	6	4.7	9
29	O=C(COc1ccccc1/C=C\c1nc(O)c([N+](=O)[O-])c(=O)[nH]1)Nc1ccccc1	/	6	12	4425	-35	2.2	6
30	O=C(NC1CCCC1)C(c1ccccn1)N(Cc1ccccc1F)C(=O)c1csnn1 (stereo unspecified)	-11	7	0	3612	-12	2.9	4

# One compound at a time, from the list above:
# Listed for CCOc1cc(C2c3c(oc4ccccc4c3=O)C(=O)N2c2nccs2)ccc1O (stereo unspecified) = BJeLR lethal = -8; ugtP null kill = /; Mtb hypoxia rep = /; Autofluor counter = 4545; PrP 5UTR inh = -29; Sa RN4220 lethal = /; Mtb hypoxia rep growth = /
# Listed for COc1ccc(NC(=O)C2CCN(S(=O)(=O)c3c(C)noc3C)CC2)cc1OC = BJeLR lethal = -10; ugtP null kill = 7; Mtb hypoxia rep = 10; Autofluor counter = 4534; PrP 5UTR inh = -27; Sa RN4220 lethal = -1.1; Mtb hypoxia rep growth = -1
# Listed for CSc1ccccc1NC(=O)CN(C)CC(=O)NCc1ccccc1 = BJeLR lethal = 4; ugtP null kill = -59; Mtb hypoxia rep = 14; Autofluor counter = 4579; PrP 5UTR inh = -20; Sa RN4220 lethal = 23; Mtb hypoxia rep growth = 7

# (list continues)
no.	structure	BJeLR lethal	ugtP null kill	Mtb hypoxia rep	Autofluor counter	PrP 5UTR inh	Sa RN4220 lethal	Mtb hypoxia rep growth
31	CC(=O)c1c(C)[nH]c(C(=O)COC(=O)c2cc(C)oc2C)c1C	/	3	10	4005	-30	0.3	0
32	O=C(Cc1c(F)cccc1Cl)NN=Cc1cccnc1	/	2	10	/	/	0.2	0
33	Cc1ccc(C(=O)NNC(=O)C2CCN(c3nc(C)cc(C)n3)CC2)cc1	5	3	0	9139	-8	1.9	-3
34	N#C/C(C(=O)c1ccccc1)=C1/CCCN1	-18	-7	7	23223*	-19	4.5	10
35	Cc1nc2ccccc2c(=O)n1/N=C/c1c(O)ccc2ccccc12	0	/	/	4606	-12	/	/
36	Cc1ccccc1CN(c1ccc(C(=O)N2CCN(C)CC2)cc1)S(C)(=O)=O	2	4	11	5909	/	6.1	-4
37	Cn1c(COc2ccccc2)nnc1SCC(=O)NCc1ccccc1	-4	2	10	7787	-29	6.5	7
38	CCOC(=O)C1(Cc2cccc(F)c2)CCN(Cc2nc(CC)[nH]c2C)CC1	3	-5	10	6070	-17	5.2	4
39	COc1cc2c(c(OC)c1OC)C(c1ccc(C)cc1)CC(=O)O2 (stereo unspecified)	/	5	-10	3486	-17	2.3	0
40	O=C(O)CC1c2ccccc2S(=O)(=O)N1c1ccccc1 (stereo unspecified)	/	-11	-1	/	/	4.3	0
41	O=C1/C(=C\c2ccncc2)N2CCC1CC2	-7	0	-7	6041	/	2.2	-14
42	COC(=O)C1(c2ccccc2)NC(c2cccs2)C2C(=O)N(C)C(=O)C21 (stereo unspecified)	5	2	5	3764	-4	2.2	7
43	CCOc1ccc(Br)cc1/C=N/NC(=O)c1ccncc1	-8	/	/	2972	-27	/	/
44	O=C(NC1CCCCC1)c1ccc(-c2ccccc2F)o1	/	-10	20	3202	-79	-2.4	23
45	Cc1noc(C)c1S(=O)(=O)N1CCCC(C(=O)Nc2nccs2)C1 (stereo unspecified)	1	-11	-6	5894	-17	1.3	1
46	Cc1ccc(S(=O)(=O)N2CCCCC2)cc1NC(=S)NC(=O)c1ccco1	0	-3	-6	3266	18	11	-9
47	O=C(NC(=S)NCCc1ccc(Cl)cc1)c1ccco1	-13	7	16	2536	-22	2.4	10
48	O=C(/C=C/c1cccc([N+](=O)[O-])c1)N(c1ccccn1)c1ccccn1	12	7	2	/	2	2.3	8
49	O=C(OCC(=O)c1ccccc1Br)c1ccncc1	0	6	16	4309	-6	-1.5	12
50	COc1ccc(NS(=O)(=O)c2ccc(NC(=O)c3ccc(N(C)S(C)(=O)=O)cc3)cc2)cc1	-1	-12	3	8443	-12	-6.0	5
51	COc1ccc(NC(=O)CSCC(=O)N(C)CC(=O)Nc2ccc(Cl)c(C(F)(F)F)c2)cc1	3	-16	7	?	-22	2.0	4
52	CCOC(=O)c1c(-c2cccc([N+](=O)[O-])c2)csc1NC(=O)CCCOc1ccccc1OC	-4	-18	14	3622	-6	-6.2	15
53	O=C(COC(=O)c1cccc([N+](=O)[O-])c1)NNC(=O)c1cccs1	/	2	-1	?	/	2.1	-6
54	c1cncc(-c2csc(NCc3ccco3)n2)c1	2	2	7	4255	-45	2.9	3
55	Nc1nnnn1N=Cc1ccccc1O	/	10	-10	/	/	6.7	3
56	O=C(NNC(=S)NC(=O)c1ccccc1)c1cccc([N+](=O)[O-])c1	3	12	1	3106	-3	16	-3
57	COCCn1c(=NC(=O)CCS(=O)(=O)c2ccccc2)sc2cc(C)ccc21	-18	3	3	4584	-10	-1.7	1
58	O=c1c2ccccc2nc2n1CCc1c-2[nH]c2ccccc12	/	-12	-1	6131	-102	7.5	2
59	O=C(Nc1cccc(C(F)(F)F)c1)N1CCN(C(=O)Nc2cccc(C(F)(F)F)c2)CC1	4	-1	-5	22460*	-17	-1.4	4
60	Nc1nc(CSc2nc3ccccc3s2)nc(N2CCOCC2)n1	-5	10	5	3743	-21	5.8	0

# Random excerpt: seven records from the list, in no set order.
no.	structure	BJeLR lethal	ugtP null kill	Mtb hypoxia rep	Autofluor counter	PrP 5UTR inh	Sa RN4220 lethal	Mtb hypoxia rep growth
52	CCOC(=O)c1c(-c2cccc([N+](=O)[O-])c2)csc1NC(=O)CCCOc1ccccc1OC	-4	-18	14	3622	-6	-6.2	15
39	COc1cc2c(c(OC)c1OC)C(c1ccc(C)cc1)CC(=O)O2 (stereo unspecified)	/	5	-10	3486	-17	2.3	0
51	COc1ccc(NC(=O)CSCC(=O)N(C)CC(=O)Nc2ccc(Cl)c(C(F)(F)F)c2)cc1	3	-16	7	?	-22	2.0	4
32	O=C(Cc1c(F)cccc1Cl)NN=Cc1cccnc1	/	2	10	/	/	0.2	0
48	O=C(/C=C/c1cccc([N+](=O)[O-])c1)N(c1ccccn1)c1ccccn1	12	7	2	/	2	2.3	8
58	O=c1c2ccccc2nc2n1CCc1c-2[nH]c2ccccc12	/	-12	-1	6131	-102	7.5	2
31	CC(=O)c1c(C)[nH]c(C(=O)COC(=O)c2cc(C)oc2C)c1C	/	3	10	4005	-30	0.3	0

# Single entries from the results shown:
# `Cc1ccc(C(=O)NNC(=O)C2CCN(c3nc(C)cc(C)n3)CC2)cc1` in Sa RN4220 lethal is listed with 1.9
# `O=C(NC1CCCCC1)c1ccc(-c2ccccc2F)o1` in PrP 5UTR inh is listed with -79
# `COc1ccc(NS(=O)(=O)c2ccc(NC(=O)c3ccc(N(C)S(C)(=O)=O)cc3)cc2)cc1` in Autofluor counter is listed with 8443

# Continued:
no.	structure	BJeLR lethal	ugtP null kill	Mtb hypoxia rep	Autofluor counter	PrP 5UTR inh	Sa RN4220 lethal	Mtb hypoxia rep growth
61	CCN1C(=O)C2(C(C#N)=C(N)Oc3n[nH]c(C(C)C)c32)c2ccccc21 (stereo unspecified)	0	-17	10	8406	-20	14	7
62	CCN1CCN(C(=S)Nc2sc(C)c(-c3ccccc3)c2C(=O)OC)CC1	10	9	16	5496	-6	7.2	9
63	O=C(CCCN1C(=O)/C(=C/c2ccccc2)SC1=S)Nc1cccc(O)c1	-2	-2	2	2453	-3	1.2	3
64	COC(=O)CCCC(=O)Nc1ccc(Cl)c(Cl)c1	6	-3	4	10113	-10	1.8	4
65	CCOC(=O)CSC1=NC(=O)CS1	0	10	9	6387	-18	-2.6	10
66	Cc1ccccc1OCc1nnc(SCC(=O)O)n1-c1cccc(Cl)c1	2	8	20	3099	-3	5.6	5
67	CCOc1ccc(NS(=O)(=O)c2ccc3[nH]c(=O)c(=O)[nH]c3c2)cc1	-8	-3	-6	3802	-61	-3.1	-14
68	O=C1/C(=C\c2ccco2)SC(=S)N1c1ccc(O)cc1	7	8	24	2084	-22	-2.6	17

# An excerpt of these results, screen by screen.
63	O=C(CCCN1C(=O)/C(=C/c2ccccc2)SC1=S)Nc1cccc(O)c1
64	COC(=O)CCCC(=O)Nc1ccc(Cl)c(Cl)c1
Assay by compound	63	64
BJeLR lethal	-2	6
ugtP null kill	-2	-3
Mtb hypoxia rep	2	4
Autofluor counter	2453	10113
PrP 5UTR inh	-3	-10
Sa RN4220 lethal	1.2	1.8
Mtb hypoxia rep growth	3	4

# From PubChem BioAssay
